Screens (PubChem)
NPR1 antag = Natriuretic polypeptide receptor (hNpr1) antagonism - Primary qHTS. Potency, µM (titrated, usually from 46.3 µM), inactives show at the highest dose activity change, negative = inhibition, usual class: inhibitors. HEK293 hNpr1 GloSensor cGMP, ANP-stimulated luminescence. 1.6% of 76,000 active; active = well fitted inhibition curve with a large enough effect; inconclusive = small, poorly fitted or top-dose-only effect; inactive = no such curve, though single readings can be large or run the other way;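 further: nearly all actives have a fitted effect of over 60% in size; nearly all hits also lower the signal before the agonist is added; a reference antagonist and vehicle were the controls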
Target sequence (P16066 whole entry, looked up): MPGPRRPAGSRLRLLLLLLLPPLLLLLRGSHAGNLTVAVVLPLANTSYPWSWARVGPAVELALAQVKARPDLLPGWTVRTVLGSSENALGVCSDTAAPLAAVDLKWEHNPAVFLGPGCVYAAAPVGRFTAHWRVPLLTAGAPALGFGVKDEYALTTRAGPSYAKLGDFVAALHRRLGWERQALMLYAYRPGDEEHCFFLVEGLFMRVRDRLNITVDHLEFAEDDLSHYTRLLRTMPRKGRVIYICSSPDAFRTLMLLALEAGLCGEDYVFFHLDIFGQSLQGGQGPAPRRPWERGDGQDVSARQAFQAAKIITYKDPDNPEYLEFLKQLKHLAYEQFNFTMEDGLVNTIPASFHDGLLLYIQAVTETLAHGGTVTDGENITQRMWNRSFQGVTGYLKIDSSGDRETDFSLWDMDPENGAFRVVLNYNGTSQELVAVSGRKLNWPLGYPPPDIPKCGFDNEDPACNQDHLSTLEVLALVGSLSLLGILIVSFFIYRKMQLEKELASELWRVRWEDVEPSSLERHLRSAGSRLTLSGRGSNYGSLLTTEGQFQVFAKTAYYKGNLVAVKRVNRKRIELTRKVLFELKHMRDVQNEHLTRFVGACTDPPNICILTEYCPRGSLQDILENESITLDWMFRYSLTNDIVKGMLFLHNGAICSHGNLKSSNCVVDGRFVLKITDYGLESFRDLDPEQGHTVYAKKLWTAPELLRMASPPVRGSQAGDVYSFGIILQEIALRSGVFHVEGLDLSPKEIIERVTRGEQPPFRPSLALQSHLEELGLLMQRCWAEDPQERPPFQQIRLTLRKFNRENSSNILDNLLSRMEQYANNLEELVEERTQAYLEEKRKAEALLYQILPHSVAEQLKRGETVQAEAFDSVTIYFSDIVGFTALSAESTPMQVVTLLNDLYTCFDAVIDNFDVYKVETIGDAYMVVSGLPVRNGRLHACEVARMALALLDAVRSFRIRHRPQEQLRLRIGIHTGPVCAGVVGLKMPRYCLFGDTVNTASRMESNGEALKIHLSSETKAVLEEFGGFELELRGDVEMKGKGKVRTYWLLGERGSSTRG
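HEK293 cells stably expressing human Npr1 and cGMP GloSensor pGS-40F, loaded 2 h with 2% GloSensor reagent, given compound 30 min at room temperature. Luminescence read before and 20 min after 0.1 nM hNppA.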
* hit, by the source's call; ? = inconclusive; [ ] = remark or other dose. On the % scale 0 is the no-effect control and ±100 the full control effect; potency means the concentration at half of the fitted maximal effect. These rows are one share of the data; count on the stated rates, not on these rows.

Start of the data: the first 4 compounds, ahead of the listing:
SMILES | NPR1 antag
COCCNC(=O)c1nc(-c2cccc(C(F)(F)F)c2)c2cnccn12 | 0.0%
COc1cccc(OCC(=O)c2ccc3c(c2)N(CC(=O)NCc2ccc(F)cc2)C(=O)CO3)c1 | -15.0%
COc1ccc2c(c1)C(C[C@H]1CN(C(=O)C(C)(C)C)CC[C@H]1CC(=O)O)=NCC2 | 3.9%[70.6 µM]
CCCc1nc(C(=O)N[C@H]2COC[C@H]2Cc2cc(C)no2)cs1 | -2.6%

All compounds of this part, previewed entries included:
SMILES | NPR1 antag
COCCNC(=O)c1nc(-c2cccc(C(F)(F)F)c2)c2cnccn12 | 0.0%
COc1cccc(OCC(=O)c2ccc3c(c2)N(CC(=O)NCc2ccc(F)cc2)C(=O)CO3)c1 | -15.0%
COc1ccc2c(c1)C(C[C@H]1CN(C(=O)C(C)(C)C)CC[C@H]1CC(=O)O)=NCC2 | 3.9%[70.6 µM]
CCCc1nc(C(=O)N[C@H]2COC[C@H]2Cc2cc(C)no2)cs1 | -2.6%
COc1ccc(NC(=O)c2cnc3c(c2)N(C(=O)Cc2ccc(C(C)C)cc2)CCC3)cc1OC | ?
COc1ccccc1-c1nc2nccc(-c3ccc(Cl)cc3)n2n1 | -7.9%
COc1ccc2[nH]c(=O)c(CCC(=O)NCCCN3CCCCC3C)cc2c1 (centres undefined) | 1.7%
Cc1noc(C)c1CCC(=O)N1CCOC(Cc2cccc(F)c2)C1 (centres undefined) | -0.8%
CC1(c2ccccc2)N(Cc2ccccc2F)C(=O)OC12CCN(C(=O)Cc1ccc(O)cc1)CC2 (centres undefined) | 6.0%
CCNc1ccnc(N2CCN(Cc3cccc(OC)c3)C(CCO)C2)n1 (centres undefined) | -3.7%
CN(C1CCc2nn(CC3CC3)c(=O)n2CC1)S(=O)(=O)c1cccnc1 (centres undefined) | 1.9%
Cc1ncccc1C(=O)N1CCC(N2C(=O)CCC2C(=O)NCc2ccccc2)CC1 (centres undefined) | -3.2%
COC(=O)CNC(=O)NC1CCN(C(=O)N2CC3CC(C2)[C@H]2CCCC(=O)N2C3)CC1 (some centres undefined) | 0.8%
COc1ccc(-c2noc([C@@H]3C[C@@H](O)CN3Cc3cc4ccccc4o3)n2)cc1 | ?
O=C(NC(c1ccccc1)c1ccccc1)c1cnc2c(c1)N([S+](=O)([O-])c1cccnc1)CCC2 | 0.4%
CNC(=O)[C@H]1C[C@H](Oc2ccccc2)CN1Cc1cn(C)c2ccc(OC)cc12 | -3.3%
COc1cccc(SCC(=O)NCc2cc3n(n2)CCNC3)c1 | 0.8%
COC[C@@H]1CN(S(=O)(=O)c2cccc(C)c2)C[C@H]1C(N)=O | -12.4%
Cc1ccc(N2CC(c3noc(-c4ccc(F)cc4Cl)n3)CC2=O)cc1 (centres undefined) | 0.8%
Cc1noc(C)c1S(=O)(=O)N1C[C@@H](Oc2ccccc2)C[C@H]1C(=O)N1CCCC1 | -2.3%
CCOC(=O)C[C@@H]1C[C@@H](C(C)C)[C@H](CNC(=O)C(C)(C)C)C=C1C | 3.3%[70.6 µM]
NC1CCCCN(C(=O)CCc2nc3ccccc3[nH]c2=O)C1 (centres undefined) | 6.3%
CC(C)N1CCC(O)(c2csc(CN3CCN(C)CC3)n2)CC1 | 1.9%[70.6 µM]
CCc1noc(C)c1C(=O)N1CCCN(Cc2ccc(F)cc2)C(C(C)C)C1 (centres undefined) | 4.0%
COC(=O)C1=C(C)N=C2SC=C(CC(=O)NCc3ccco3)N2C1c1cccc(F)c1 (centres undefined) | 2.9%
CNC(=O)[C@@H]1CN(Cc2ccccc2)C[C@H]1c1n[nH]c(C)n1 | 6.9%
O=C(NC1CCN(c2ccc(F)cc2)C1=O)c1ccc(F)cc1Cl (centres undefined) | -1.8%
CC(C)N1C[C@H](O)C[C@H]1c1nnc2n1CCN(C(=O)CCCc1ccccc1)C2 | 4.6%
CCC(=O)N(C1CCOCC1)C1CCN(Cc2ccc(C(F)(F)F)cc2)CC1 | -9.2%
COc1ccc(-c2ccc3nnc(CNC(=O)c4cccn4C)n3n2)cc1 | 0.5%
COc1cc(CCC(=O)N2C[C@@H](C(N)=O)[C@H](c3n[nH]c(C)n3)C2)on1 | 6.7%
COCC1CN(C2CCC2)CC12CCN(C(=O)c1ccc(C)s1)CC2 (centres undefined) | -22.4%
CC(=O)N1CCCC(c2nc(-c3ccc4nc[nH]c4c3)no2)C1 (centres undefined) | 1.5%
O[C@H]1[C@H](NCc2ccc(OC(F)(F)F)cc2)[C@@H](c2cncnc2)C[C@H]1O | -0.8%[70.6 µM]
O=C1CC(c2ccccc2)N(C(=O)CNC(=O)c2[nH]nc3c2CCc2ccccc2-3)CCCCCN1 (centres undefined) | -0.8%
COC(=O)c1cccc(NC(=S)N[C@H]2CO[C@H]3[C@@H]2OC[C@@H]3n2cc(-c3ccccc3)nn2)c1 | 11.2µM*
O=C(c1ccccc1F)N1CCC2(CC1)SCC(=O)N2c1ccc(Cl)cc1 | 2.5%
N#Cc1ccc(CNC(=O)[C@@H]2Cc3nc[nH]c3CN2C(=O)NC2CCCCC2)cc1 | 0.0%[70.6 µM]
CCCNC(=O)C(NC(=O)c1cccc(OC)c1)C1CCN(C(=O)c2cccc(F)c2)CC1 (centres undefined) | 0.0%
COC(=O)C1=C(C)N(Cc2ccccc2F)C(=O)CC1c1ccc(F)cc1F (centres undefined) | -1.4%
O=C1NC(C(=O)NCCCc2ccccc2)Cn2cccc21 (centres undefined) | -5.4%
Cc1ccc(Cn2nc3n(c2=O)CCN(Cc2cc(C)ccc2C)C3=O)cc1 | 2.5%
CCn1c(CN2CCN(c3nc(C)cnc3C)CC2)nnc1C1CC(N)C1 (centres undefined) | -1.8%
CC(=O)N(C1CC1)C1CCOC2(CCN(C(=O)NCc3ccccc3)CC2)C1 (centres undefined) | 0.0%
O=C(c1cncs1)N1CCc2c(cc(-c3cccc(F)c3)c(=O)n2CCN2CCCCC2)C1 | 4.6%
COCC[C@]1(O)CCN(C(=O)c2ccccc2Cl)C[C@H]1C | 0.2%
c1ccc2oc(CN3Cc4[nH]cnc4C[C@H]3c3nc(-c4cnccn4)no3)cc2c1 | -4.2%[70.6 µM]
C[C@H]1[C@@H]2[C@@H](O)C([C@H](C)C(=O)NCc3cccnc3)CC[C@@]2(C)CC[C@@H]1NC(=O)c1ccc(C#N)cc1 (some centres undefined) | 8.8%
O=C(NC[C@H]1O[C@@H]2C[C@@H](CC(=O)N3CCOCC3)O[C@@H]2[C@@H]1O)NC1CCC1 | 3.6%[70.6 µM]
CC(=O)c1ccc(NC(=O)O[C@@H]2CO[C@H]3[C@@H]2OC[C@@H]3n2nnnc2-c2ccccc2)cc1 | -4.9%
O=C(NC[C@H]1Cn2ccnc2CO1)C1CCCC1 | 1.5%[70.6 µM]
COCc1nnc2n1CCC(NC(=O)c1ccc3cc[nH]c3c1)CC2 (centres undefined) | -15.8%
COCCn1c2c(c(=O)n1-c1ccccc1)CCN(C(=O)c1cccc(O)c1)C2 | -4.8%[70.6 µM]
Cc1ccccc1-c1[nH]nc2ncc(-c3cccnc3)nc12 | -5.1%[70.6 µM]
Cc1nc2c(c(-c3ccc(O)cc3)n1)CN(Cc1ccsc1)CCC2 | -14.9%
COCCNC(=O)CC[C@]12CC[C@](C)(O)C[C@H]1C(C)(C)C[C@@H]2NC(=O)c1ccco1 | 8.0%[70.6 µM]
COc1ccc(C2Cn3cnc(C(=O)N4CCC(C(=O)Nc5ccc(F)cc5C)CC4)c3CO2)cc1 (centres undefined) | -8.5%
CN1C[C@H](O)C[C@H]1c1nnc2n1CCN(C(=O)C1CCCC1)CC2 | -0.9%
COC[C@@H]1CN(Cc2cc(F)c(F)c(F)c2)C[C@H]1C(=O)NC1CC1 | -2.7%
Cc1cc(C(=O)N2CC[C@H]3C(=O)NCCCCCCN(Cc4ccncc4)[C@@H]3C2)n(C)n1 | 3.0%
(list continues)
SMILES | NPR1 antag
CNC1CNC(=O)c2cc(-c3ccc(OC)cc3)nn21 (centres undefined) | 1.5%
Cc1nc(N)nc(N2CCOC(Cc3noc(-c4ccccn4)n3)C2)c1C (centres undefined) | ?
O=C([C@H]1C[C@H](Oc2cccnc2)CN1C(=O)c1ccccc1)N1CCOCC1 | 7.2%
O=C1NC[C@@H](CCC(=O)N2CCc3ccccc32)N2C[C@@H](NS(=O)(=O)c3ccccc3)C[C@@H]12 | -28.2%
O=C(c1ccc(Cn2cnnn2)cc1)N1CCC2(CC1)[C@H](O)C[C@@H]2OCCO | 0.8%
CCC1c2nccn2CCCN1C(=O)c1nn(C)c2ccccc12 (centres undefined) | 6.6%
COC(=O)c1cc2n(n1)CCN(C(=O)Cc1[nH]nc3ccccc13)C2 | 0.7%
CCN(CC)Cc1nc(C2(O)CCN(Cc3ccc(C(F)(F)F)cc3)CC2)cs1 | ?
Cc1nccn1CC(=O)N[C@@H]1CN(Cc2ccccn2)C[C@H]1CN(C)C | -1.9%
COCCn1ncc(N2CCCC(CC(=O)Nc3ccc(Cl)cc3)C2)cc1=O (centres undefined) | -11.4%
CCC1CN(C(=O)c2ccc(C)c(F)c2F)CCC(=O)N1Cc1ccccc1 (centres undefined) | 3.3%
CN(CCc1ccccn1)[C@H]1[C@@H]2OC[C@@H](O2)[C@@H](NC(=O)Nc2cccc(C#N)c2)[C@@H]1O | -0.3%[70.6 µM]
COCCNC(=O)[C@H]1C[C@H](Oc2cccnc2)CN1C(=O)Nc1ccc(OC)cc1 | -2.7%
O=C(Nc1cccc(F)c1)Nc1cccc(-c2nnc3n2CCCC3)c1 | -2.8%
CN1c2cc(C(=O)Nc3ccc(C(F)(F)F)cc3)ccc2C(=O)N2CCCCCC21 (centres undefined) | -21.8%

Shown as a hit in NPR1 antag (from the list above):
SMILES | NPR1 antag
COC(=O)c1cccc(NC(=S)N[C@H]2CO[C@H]3[C@@H]2OC[C@@H]3n2cc(-c3ccccc3)nn2)c1 | 11.2µM*

(continued)
SMILES | NPR1 antag
O[C@@H]1C[C@@H](c2nc(-c3ccc4c(c3)OCO4)no2)N(CC2CCCCC2)C1 | -4.7%[70.6 µM]
O=C(NCc1ccc(F)cc1)C1CCN(c2cn[nH]c(=O)c2)C1 (centres undefined) | 0.2%
O=C(Nc1ccc2c(c1)OCCO2)C1(CCO)CCN(c2ncccn2)C1 (centres undefined) | -2.2%
Cn1cncc1CNC(=O)c1nc(-c2cccc(N3CCOCC3)c2)cc2c1ccn2C | -12.9%[70.6 µM]
Cn1cnc(S(=O)(=O)N2CC[C@@H]3COCCN(Cc4ccccc4)[C@@H]3C2)c1 | -0.4%
Cc1ccc(S(=O)(=O)Cc2noc([C@@H]3C[C@@H](O)CN3Cc3cccc(OC(F)(F)F)c3)n2)cc1 | -1.6%
Cc1csc(NC(=O)[C@@H]2C[C@@H](c3ccc(F)cc3)N([S+](=O)([O-])c3cccnc3)C2)n1 | 1.1%
Cc1cc(C)c(CNC(=O)c2cc(-c3cccnc3)cc3c2OCCN3C(C)C)c(=O)[nH]1 | -0.4%[70.6 µM]
O=C1COCC2(CN(c3ccc(C(F)(F)F)cn3)C2)CN1c1ccccc1F | -2.6%[70.6 µM]
CN(CC1(O)CCCN(Cc2ccc(F)cc2)C1=O)C1CCOCC1 (centres undefined) | -0.3%
Cc1cc(C(=O)N2CC(=O)N(C3CCCCC3)CC(OCc3ccccc3)C2)n(C)n1 (centres undefined) | -1.6%
CN1C(=O)CCC2(CNC(=O)c3ccnn3C)CCC=C12 (centres undefined) | 4.0%
COc1cccc([C@@H]2CN(C(=O)c3c(C)noc3C)C[C@H]2C(=O)O)c1OC | -13.6%
O=C(NCc1cccc(F)c1)N1CCC(N2CC3CC(C2)[C@H]2CCCC(=O)N2C3)CC1 (some centres undefined) | -0.2%
COc1ccc([C@H]2C[C@@H](O)[C@@H](O)[C@@H]2NC(=O)c2cc(C)on2)cc1 | -0.1%[70.6 µM]

Sorted by value in NPR1 antag (smallest number first): seven of the compounds above.
SMILES | NPR1 antag
COc1ccc(C2Cn3cnc(C(=O)N4CCC(C(=O)Nc5ccc(F)cc5C)CC4)c3CO2)cc1 (centres undefined) | -8.5%
COCCNC(=O)[C@H]1C[C@H](Oc2cccnc2)CN1C(=O)Nc1ccc(OC)cc1 | -2.7%
O=C(NC1CCN(c2ccc(F)cc2)C1=O)c1ccc(F)cc1Cl (centres undefined) | -1.8%
COC(=O)C1=C(C)N(Cc2ccccc2F)C(=O)CC1c1ccc(F)cc1F (centres undefined) | -1.4%
O=C(NC(c1ccccc1)c1ccccc1)c1cnc2c(c1)N([S+](=O)([O-])c1cccnc1)CCC2 | 0.4%
CC(=O)N1CCCC(c2nc(-c3ccc4nc[nH]c4c3)no2)C1 (centres undefined) | 1.5%
CCC1c2nccn2CCCN1C(=O)c1nn(C)c2ccccc12 (centres undefined) | 6.6%

Other records.
SMILES | NPR1 antag
COc1ccccc1NC(=O)Cn1ccn2nc(-c3ccc(F)cc3)c(CO)c2c1=O | 0.9%
O=C(Cc1cccc(F)c1)N1CCC(Cc2noc(C3CCOCC3)n2)C1 (centres undefined) | 0.0%
CCN(CC)C(=O)C(C)[C@@H]1CC[C@@]2(C)CC[C@H](NC(=O)CC(C)(C)C)[C@@H](C)[C@@H]2[C@H]1O (some centres undefined) | -4.9%[70.6 µM]
CN1CC2(CCN(S(=O)(=O)c3cccnc3)CC2)CC1C(=O)N1CCOCC1 (centres undefined) | 0.9%
O=C(NC[C@H]1OC[C@@H](NC2CCCC2)[C@@H]1O)c1cccs1 | 0.7%[70.6 µM]
CSCc1ccc(N2CCC(C(C)N3CCCC3)CC2)nc1 (centres undefined) | 1.8%
COc1cccc(CC(=O)N2CC(CO)C3(CCNCC3)C2)c1 (centres undefined) | 13.3%
CN(Cc1cnccn1)C(=O)[C@H]1CCC[C@@H](O)C1 | 2.0%
COCC(=O)N1CCC(Oc2ccccc2-c2nc(C3CCOCC3)no2)C1 (centres undefined) | 21.6%
O=C(Nc1ncc(-c2cccc(F)c2)c2c1OCC2)c1ccc(Cl)cc1 | -4.5%[70.6 µM]
